Compound activity as filed in PubChem.
Vaccinia Venus = qHTS for Stage-Specific Inhibitors of Vaccinia Orthopoxvirus: Venus Reporter Primary qHTS. Vaccinia virus Venus reporter expression, fluorescence. Potency, µM (highest dose often 36.5 µM), inactives show at the top dose activity change, negative = inhibition, usual class: inhibitors. hit rate 0.46% among 330,000. AID 720580, 2013; active means well fitted inhibition curve with a large enough effect; inconclusive means small, poorly fitted or top-dose-only effect; inactive means no such curve, though single readings can be large or run the other way; tested in A549 cells; also: nearly all actives have a fitted effect of over 30% in size; inactives centre near -10
Vaccinia mCherry = qHTS for Stage-Specific Inhibitors of Vaccinia Orthopoxvirus: mCherry Reporter Primary qHTS; Vaccinia virus mCherry reporter infection, fluorescence; about a quarter of the inactives have no number; Potency, µM (titrated, usually from 36.5 µM), for the others: top-dose activity change, negative = inhibition, actives largely listed as inhibitors; hit rate 0.63% among 310,000; active = well fitted inhibition curve with a large enough effect; inconclusive = small, poorly fitted or top-dose-only effect; inactive = no such curve, though single readings can be large or run the other way; tested in A549 cells; also: nearly all actives have a fitted effect of over 35% in size; inactives centre near -10
Numbers without * were called inactive; i = inactive; ? = inconclusive; / = no result given; & = joins results of further samples; [ ] = remark or other dose. % is scaled to controls: 0 for no effect and ±100 for the full control effect; potency is read from the fitted curve at half-maximal effect.

Preview:
SMILES	Vaccinia Venus	Vaccinia mCherry
Cc1cc(C)cc(NS(=O)(=O)c2ccc3c(c2)C(C)(C)C(=O)N3C)c1	-12%	-12%
O=S(=O)(c1ccccc1)c1nc(-c2ccccc2Cl)oc1N1CCCCCC1	-10%	-14%
CCOc1ccc(/C=C2/Sc3ccc(C(=O)N4CCOCC4)cc3N(C)C2=O)cc1OC	-17%	i
Cc1ccc(-n2c(C)cc(/C=N/Nc3ccc([N+](=O)[O-])cn3)c2C)c(C)c1	1%	/
Cc1ccc(Cl)cc1NC(=O)CSc1ccc(C(=O)O)cn1	-3%	-15%
CCN1CCCC(OC(=O)Nc2ccccc2)C1 (centres undefined)	-3%	i
O=C(COc1ccccc1[N+](=O)[O-])N/N=C/c1ccc[nH]1	1%	i
CC1CCCCC12NC(=O)N(CC(=O)NCc1ccc3c(c1)OCO3)C2=O (centres undefined)	12%	-1%
CCOC(=O)N1CCN(S(=O)(=O)c2cccc3cccnc23)CC1	1%	/
Cn1c(SCC(=O)c2ccccc2)nnc1-c1ccncc1	-5%	-8%
CCOc1ccc(Nc2nc(N3CCCC3)nc(N3CCN(c4ccc(OC)cc4)CC3)n2)cc1	-4%	-9%
COc1ccc(CCNc2nc3ccc(Cl)cc3n3cnnc23)cc1OC	?	?
CC(C)Sc1nc2c(c(=O)n(C)c(=O)n2C)n1C	-8%	-8%
CC(C)C(c1nnnn1Cc1ccco1)N1CCN(c2nc3ccccc3s2)CC1 (centres undefined)	-22%	-10%
CC1(C(=O)N2CCCCC2)CCN1C(=O)C1(c2ccccc2)CC1 (centres undefined)	6%	-10%
Cc1ccc(NC(=O)c2cnc(N3CCCCC3)c3ccccc23)c(C)c1	-11%	-11%
Cc1ccc2c(=O)cc(C(=O)Nc3nc4ccc(Cl)cc4s3)oc2c1C	-9%	-12%
CC(C)N1C(=O)CCC1C(=O)NCc1ccc(F)cc1Cl (centres undefined)	-14%	i

The whole of this part, previewed entries included:
SMILES	Vaccinia Venus	Vaccinia mCherry
Cc1cc(C)cc(NS(=O)(=O)c2ccc3c(c2)C(C)(C)C(=O)N3C)c1	-12%	-12%
O=S(=O)(c1ccccc1)c1nc(-c2ccccc2Cl)oc1N1CCCCCC1	-10%	-14%
CCOc1ccc(/C=C2/Sc3ccc(C(=O)N4CCOCC4)cc3N(C)C2=O)cc1OC	-17%	i
Cc1ccc(-n2c(C)cc(/C=N/Nc3ccc([N+](=O)[O-])cn3)c2C)c(C)c1	1%	/
Cc1ccc(Cl)cc1NC(=O)CSc1ccc(C(=O)O)cn1	-3%	-15%
CCN1CCCC(OC(=O)Nc2ccccc2)C1 (centres undefined)	-3%	i
O=C(COc1ccccc1[N+](=O)[O-])N/N=C/c1ccc[nH]1	1%	i
CC1CCCCC12NC(=O)N(CC(=O)NCc1ccc3c(c1)OCO3)C2=O (centres undefined)	12%	-1%
CCOC(=O)N1CCN(S(=O)(=O)c2cccc3cccnc23)CC1	1%	/
Cn1c(SCC(=O)c2ccccc2)nnc1-c1ccncc1	-5%	-8%
CCOc1ccc(Nc2nc(N3CCCC3)nc(N3CCN(c4ccc(OC)cc4)CC3)n2)cc1	-4%	-9%
COc1ccc(CCNc2nc3ccc(Cl)cc3n3cnnc23)cc1OC	?	?
CC(C)Sc1nc2c(c(=O)n(C)c(=O)n2C)n1C	-8%	-8%
CC(C)C(c1nnnn1Cc1ccco1)N1CCN(c2nc3ccccc3s2)CC1 (centres undefined)	-22%	-10%
CC1(C(=O)N2CCCCC2)CCN1C(=O)C1(c2ccccc2)CC1 (centres undefined)	6%	-10%
Cc1ccc(NC(=O)c2cnc(N3CCCCC3)c3ccccc23)c(C)c1	-11%	-11%
Cc1ccc2c(=O)cc(C(=O)Nc3nc4ccc(Cl)cc4s3)oc2c1C	-9%	-12%
CC(C)N1C(=O)CCC1C(=O)NCc1ccc(F)cc1Cl (centres undefined)	-14%	i
COc1cc(OC)cc(C(=O)NCC(=O)OCC(=O)Nc2ncc(Cl)cc2Cl)c1	-1%	-3%
CCCn1c2ccccc2c2cnn(CC(=O)N3CCC(C(=O)OCC)CC3)c(=O)c21	-12%	0%
O=C(OCc1c(F)cccc1Cl)c1cnc(Cl)c(Cl)c1	0%	3%
Cc1ccc(N2C(=O)CCC2=O)c(C)c1	-13%	-12%
Cc1ccc(C(=O)N(Cc2nnc(-c3ccccc3Cl)o2)C2CC2)o1	-7%	-2%
Cc1cc(Cl)ccc1NS(=O)(=O)c1ccc2c(c1)CC(C)N2C(=O)C1CCC1 (centres undefined)	-13%	-24%
CCCNC(=O)Cc1c(O)c2ccccc2[nH]c1=O	-11%	-3%
COc1ccc(C(C[N+](=O)[O-])C2(c3ccc(OC)c(OC)c3)C(=O)c3ccccc3C2=O)cc1 (centres undefined)	?	11µM*
CC(C)c1ccc(Nc2nnc(SCC(=O)c3nnc(-c4ccccc4)o3)s2)cc1	5%	-15%
COc1ccc(-c2cc(C(F)(F)F)c(C#N)c(SCC(=O)Nc3ccccc3C#N)n2)cc1	-18%	/
CNC(=S)/N=C/NOCc1c(Cl)cccc1Cl	-6%	2%
CCn1cc(C(=O)N2CCc3ccccc32)c(=O)c2cc(S(=O)(=O)N3CCCC3)ccc21	0%	0%
CCNC1CCC(Nc2ccnc3cc(Cl)ccc23)CC1 (centres undefined)	-24%	-2%
CCOc1ccc(NC(=O)COC(=O)CCS(=O)(=O)c2ccc(C)cc2)cc1	0%	?
COC(=O)c1cc(C#N)c(Oc2ccccc2OC)nc1C	-17%	/
COc1ccc(NC(=O)C(F)(F)F)cc1OC	-3%	/
CCc1ccccc1NC(=O)c1cc(-c2ccc3c(c2)OCO3)on1	-11%&2%	-5%&-3%
CCOC(=O)Cn1c(=N)n(CCOc2ccc(F)cc2)c2ccccc21	-7%	-21%
CN1N=C(/C=C/c2ccccc2)CCC1=O	-13%	i
Cc1ccc(OCCNC(=O)c2ccccc2O)cc1	-18%	-5%
OCC1=C[C@@H](O)C2C=CO[C@@H](O[C@@H]3O[C@H](CO)[C@@H](O)[C@H](O)[C@H]3O)C12 (some centres undefined)	-2%	i
CC(C)(C)c1cc(NC(=O)CSc2nnc(N)s2)n(-c2ccccc2)n1	-7%	i
COc1ccccc1Nc1nn2c(=O)c3ccc(C(=O)NC(C)c4ccccc4)cc3nc2s1 (centres undefined)	-4%	-5%
CC(=O)N1c2ccccc2CC1C(=O)N1CCN(c2cccc(Cl)c2)CC1 (centres undefined)	8%	-13%
Cc1ccc2nc(Nc3cccc(C(F)(F)F)c3)c3nnnn3c2c1	-22%	-24%
Cc1ccc(-n2nc(C)cc2Nc2ncc(Cl)cc2Cl)cc1	-9%	-23%
CCC/C(C)=C/c1ccc(CC)cn1	-12%	i
COc1cc(OC)cc(C(=O)N[C@H](C(=O)Nc2nc(-c3ccc(F)c(F)c3)cs2)C(C)C)c1	-6%	-26%
COc1ccc2c(c1)CCC/C2=N/OC(=O)c1ccccc1OC	-19%	-2%
COc1ccc(-c2nnc(-c3ccc(F)cc3)o2)cc1	-1%	-9%
Cc1cc(O)ccc1Nc1nc(-c2cccs2)cs1	?	?
O=S(=O)(c1ccc(F)cc1)c1nc(-c2ccco2)oc1NCCCn1ccnc1	-10%	-23%
(next part)
SMILES	Vaccinia Venus	Vaccinia mCherry
CC1(C)CC(=O)c2cc(C(=O)NCc3ccccc3)c(=O)[nH]c2C1	-6%	4%
COCCCN(C(=S)Nc1cc(C)cc(C)c1)C(C)c1ccncc1 (centres undefined)	-1%	-12%
COc1cc(OC)nc(NC(=O)CSc2nc3ccccc3[nH]2)n1	-5%	-17%
Cc1cnc(CN(C)C(=O)CC2C(=O)NCCN2CCCc2ccccc2)[nH]1 (centres undefined)	-2%	i
COc1cc(C)c(NC(=O)C(=S)NCc2ccccc2)cc1C	2%	3%
Cc1oc(-c2ccccc2)nc1CS(=O)CC(=O)O (centres undefined)	-9%	i
COC(=O)Cn1c(C)nc([N+](=O)[O-])c1Br	-14%	-20%
O=C(N/N=C/c1cccc(O)c1)C(=O)N1CCCCCC1	1%	-16%
COc1ccc(OC)c(CNC(=O)CCCn2ccc3cc(S(=O)(=O)N4CCCC4)ccc32)c1	-25%	-24%
CN(C)CC#CCOCCOCCC#N	-18%	-5%
COc1ccc(CC(=O)N/N=C/c2sccc2C)cc1	-8%	-6%
S=C(Nc1ccc(OCc2ccccc2)cc1)Nc1cccc(Cl)c1Cl	-3%	-17%
CCOC(=O)c1ccccc1NC(=O)Cn1cnc2c(cnn2-c2ccc(F)cc2)c1=O	-2%	-12%
Cc1oc2ncn(CC(C)C)c(=O)c2c1C(=O)NCCCN1CCCCC1	-8%	i
CCOC(=O)c1cc(C)nc(SC)c1C#N	-3%	-7%
CC(C)c1ccc(NC(=O)CN(C)S(=O)(=O)c2ccc3c(c2)c(=O)n(C)c(=O)n3C)cc1	-10%	-9%
O=C(CCc1ccccc1)Nc1ccc2c(c1)OCCO2	-3%	/
CCOC(=O)c1ccc(N[C@@H]2CCN3C(=O)c4ccccc4[C@@H]3C[C@H]2O)cc1	0%	-13%
CC(=O)Nc1ccc(NC(=O)c2c(C)c(-c3ccccc3)nc3ccccc23)cc1	-19%	-25%
CC1(C)CCC(=O)N2CC[C@H]3C[C@H](OC(=O)Nc4ccc(Br)cc4)C[C@@H]1[C@H]32	?	-8%
O=C(Nc1cc(Sc2nc3ccccc3s2)cc([N+](=O)[O-])c1)c1ccccc1	?	?
CCOc1ccc(CCNCc2c(C(=O)O)c(C)n(Cc3ccccc3F)c2C)cc1	0%	0%
COC(=O)C1=C(c2ccc(F)cc2OCc2ccccc2)C[C@@H]2CC[C@H]1N2C(=O)NCc1ccc(F)cc1	-26%	-32%
NS(=O)(=O)c1ccc(N=Nc2c[nH]c(=O)c(O)c2)cc1	93%[activator]	7%
O=C(O)c1ccc(NN=CC2=C(N3CCOCC3)/C(=C/c3ccccc3)CC2)cc1	-18%	-20%
Cc1cc(S(=O)(=O)N2CCCCC2)ccc1OCC(=O)Nc1ccccc1	-10%	i
Cc1ccc(C(=O)NCCC2=CCCCC2)cc1S(=O)(=O)N1CCOCC1	-12%	-17%
Cc1ccc(NC(=O)C2C3C=CC(O3)C2C(=O)O)c(C)c1 (centres undefined)	-1%	i
NC(=O)N/N=C/c1ccccc1OC(=O)c1ccccc1Br	-12%	-10%
CCCc1nc(SCC(=O)NC2CCCC2)c2ccccc2n1	-14%	-7%
Cc1ccc(-c2onc3ccc(C4(C)OCCO4)cc23)cc1	-3%	-9%
COc1cccc(-n2nnc3c(=O)n(CC(=O)Nc4ccccc4C)cnc32)c1	-7%	-13%
O=C(c1ccccc1Cl)N1CCN(c2ncccn2)CC1	-2%[7.34 µM]	-26%[7.34 µM]
COc1cc2c(cc1O)C(Cc1ccc(O)cc1)[N+](C)(C)CC2 (centres undefined)	-4%	-11%
CCOC(=O)c1coc(CNC(=O)c2c(C)oc3c2CCCC3)c1	-17%	/
COc1cc(NC(=O)Nc2nc(C(N)Cc3ccc(C(F)(F)F)cc3)cs2)cc(OC)c1OC (centres undefined)	?	?
O=C(Nc1ccc(Nc2ccccc2)cc1)c1ccc(Cl)cc1Cl	-8%[7.34 µM]	-17%[7.34 µM]
COc1ccc(CCNC(=O)CNS(=O)(=O)c2ccc(Br)s2)cc1OC	-8%	i
CCN1C(C#N)=C(C#N)N=C(C)CC1(C)C	9%	-18%
COc1ccc(CN2CCN(Cc3ccc4ccccc4c3)CC2)cc1OC	-30%	-29%
Cc1ccc(S(=O)(=O)N2CCCCC2)cc1NC(=O)Cn1cnc2c1c(=O)n(C)c(=O)n2C	-17%	i
CCCC(=O)N1CCCC(C(=O)c2cccc(OC(C)C)c2)C1 (centres undefined)	-5%	i
C=C(C)C1Cc2cc3ccc(=O)oc3cc2O1 (centres undefined)	-9%	-8%
O=C(Cc1ccc(F)cc1)Nc1cccc(-c2cn3c(n2)SCC3)c1	-17%	-10%
O=C(O)CCNc1nc(-c2ccccc2)nc2ccccc12	-1%	/
O=c1[nH]c2sc3c(c2c(=O)n1Cc1ccccc1)CCC3	-19%	/
CN1CCN(C(CNC(=O)c2c(F)cccc2F)c2ccc3c(c2)OCO3)CC1 (centres undefined)	-2%	-3%
CCCc1nn2c(=O)cc(COC(=O)c3cccc(NC(=O)COc4ccc(F)cc4)c3)nc2s1	-15%	-18%
O=C(c1ccco1)N1CCN(CC(O)COc2ccc3oc4ccccc4c3c2)CC1 (centres undefined)	-24%	-14%
COc1cccc(CC(=O)Nc2c(C(=O)N3CCN(c4ccccc4F)CC3)oc3ccccc23)c1	-16%	-29%
The list continues.
SMILES	Vaccinia Venus	Vaccinia mCherry
O=C([C@@H]1C[C@@H](Sc2nc3ccccc3[nH]2)CN1Cc1ccc(Cl)cc1)N1CCN(c2ccccc2F)CC1	-22%	-10%
O=C(Cc1ccc(Cl)cc1)NCCc1cnc[nH]1	-10%	-13%
C/C(=N\NC(=O)c1ccc(O)cc1)c1cc2ccccc2o1	-12%	-14%
O=c1c2ccccc2nc(/C=C/c2ccc([N+](=O)[O-])cc2)n1CCCO	?	-26%
CN1CCC(N2CCN(C3CN(Cc4ccccc4)S(=O)(=O)C3)CC2)CC1 (centres undefined)	5%	28%
O=C(c1cc2c(s1)CCC2)N1C(=O)c2ccccc2S1(=O)=O	-3%	/
NS(=O)(=O)c1cccc(NC(=O)CC(NC(=O)c2ccccc2Cl)c2ccccc2)c1 (centres undefined)	-10%	-2%
CC(SC1=NCCS1)C(=O)Nc1nnc(-c2ccc(Cl)cc2)s1 (centres undefined)	-4%	8%
